# ALR H2O2 inh – inhibitors of human sulfhydryl oxidase ALR. P55789. purified ALR, DTT oxidation, H2O2 HRP-luminol luminescence. inhibition, % (concentration not given with the values). 3.8% of 290,000 active;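 active = mean and each replicate at 75% or more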;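 also: stock transfer was 7.5 nL into about 7.5 µL; 0% = neutral wells and 100% = wells with inactivated enzyme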
# Target sequence (P55789 whole entry, looked up): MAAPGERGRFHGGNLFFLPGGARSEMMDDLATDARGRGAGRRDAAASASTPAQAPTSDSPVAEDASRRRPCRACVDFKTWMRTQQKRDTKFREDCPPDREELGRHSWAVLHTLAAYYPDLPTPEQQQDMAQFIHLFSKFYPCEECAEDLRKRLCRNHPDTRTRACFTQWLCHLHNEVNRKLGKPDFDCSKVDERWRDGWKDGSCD
# rRNA inh HTS – selective bacterial rRNA inhibition in E. coli | GFP signal change (wild-type ribosome), % (no concentration beside the values) | AID 720706 | E. coli WT GFP vs humanized-ribosome RFP mutants, fluorescence, 24 h; active compounds read low; DMSO median 0, no signal -100 | 1.6% of 350,000 active;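 active = significant combined selectivity score with lowered wild-type GFP, culture density cut under 30%, mutant RFP and density less affected; inactive = any of these conditions unmet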; also: one replicate is shown; some compounds called inactive have numbers as strong as hits
# Beta2AR agonist – activates human beta-2 adrenergic receptor causing internalization | 0.43% of 340,000 active | response, % (concentration not given with the values) | Am2.2-beta2AR cells, FAP receptor internalization, flow cytometry; reference of the scale not given here;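 active = response above a set limit, near 3 SD of response in nonfluorescent compounds, cut at about 42% in these data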;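 also: stock transfer was 100 nL into about 11 µL; a reference agonist was the positive control; negative values mostly stem from fluorescent compounds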
# FGF22 binding – binders of recombinant human FGF22 by thermal shift; Q9HCT0; SYPRO orange fluorescence; percent of sucrose octasulfate shift, DMSO zero; calls only at 9.99 µM; 1.5% of 340,000 active;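 active = melting point raised past a set limit in the mean and every replicate; three in four hits are not shown here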
# Target sequence (Q9HCT0 whole entry, looked up): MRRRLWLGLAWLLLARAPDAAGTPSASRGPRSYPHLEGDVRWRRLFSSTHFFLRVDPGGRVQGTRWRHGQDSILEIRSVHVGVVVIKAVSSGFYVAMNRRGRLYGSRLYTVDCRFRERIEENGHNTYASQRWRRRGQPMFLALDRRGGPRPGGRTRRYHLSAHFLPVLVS
# UCH37 DUB inh – inhibitors of human deubiquitinating enzyme UCH37 | Q9Y5K5 | purified proteasome/UCH37, Ub-AMC cleavage fluorescence | inhibition, % (no concentration beside the values) | 0.33% of 330,000 active | AID 588478;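 active = mean of two replicates above 20%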;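 also: 0% = compound-free wells with enzyme and 100% = wells lacking proteasome; stock transfer was 100 nL into about 20 µL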
# Target sequence (Q9Y5K5 whole entry, looked up): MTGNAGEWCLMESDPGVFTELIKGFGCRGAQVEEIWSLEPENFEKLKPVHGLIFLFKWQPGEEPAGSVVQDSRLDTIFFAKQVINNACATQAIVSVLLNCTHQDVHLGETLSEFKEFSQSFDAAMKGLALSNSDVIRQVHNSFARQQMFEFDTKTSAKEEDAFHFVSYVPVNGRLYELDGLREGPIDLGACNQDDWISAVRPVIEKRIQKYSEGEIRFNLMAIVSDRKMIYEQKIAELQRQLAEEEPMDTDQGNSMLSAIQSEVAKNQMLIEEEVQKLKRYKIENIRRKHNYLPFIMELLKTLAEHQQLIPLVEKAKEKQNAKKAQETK
#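 Material: Human UCH37 enzyme supplied as purified proteasome complex | Schedule: 30 min preincubation with enzyme, 25 min cleavage at room temperature | Detection: AMC fluorescence 355/460 nm | Measure: % inhibition of Ub-AMC cleavage fluorescence | Controls: Wells without proteasome as full block, compound-free enzyme plus substrate as uninhibited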
# HNF4A DNA FP – change in binding of human HNF4 alpha to DNA | HNF4a-FITC DNA binding, fluorescence polarization, 1 h | activity change, % at 10 µM | 0.3% of 360,000 active | AID 1224865; in the data active = activity change above about 30%, passing the limit was not always enough;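 also: controls were the assay level and a saturating level of protein; the project sought stronger binding though the title names inhibitors; some compounds called inactive have numbers as strong as hits; positive values seem to mean higher polarization but the record does not say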
# E coli growth – E. coli growth inhibition; Escherichia coli growth, OD600, 23 h; active compounds read low; OD600 absorbance (no concentration beside the values); 0.21% of 330,000 active;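 active = OD600 absorbance below the run mean of sample wells minus 3.6 SD, in any replicate, cut at about 0.56 in these data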;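 also: stock transfer was 300 nL into about 60 µL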
# rRNA inh HTS OD600 – also measured in rRNA inh HTS; calls as there; OD600 change, %; measured here: OD600 growth;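 optical density of the mix in the first replicate; 0 = DMSO median and -100 = no signal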
# rRNA inh HTS RFP – second read-out of rRNA inh HTS, no call of its own (marks repeat the call); RFP signal change, %; measured here: RFP humanized mutant strains;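 first replicate; 0 = DMSO median and -100 = no signal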
# The depositor's hits bear a star; i = inactive; / = no result given. The list is partial. The share of hits here may be higher or lower than overall.
SMILES,ALR H2O2 inh,rRNA inh HTS,rRNA inh HTS OD600,rRNA inh HTS RFP,Beta2AR agonist,FGF22 binding,UCH37 DUB inh,HNF4A DNA FP,E coli growth
CCCS(=O)(=O)N1CCC(C(=O)NCc2ccccc2Cl)CC1,-12.0,/,/,/,-4.0,/,-0.4,1.5,0.73
C[C@H](NC(=O)c1ccccc1F)C(=O)N1CCC2(CC1)NCCc1[nH]cnc12,-7.2,12.5,10.7,3.3,-3.2,i,1.2,-4.5,0.677
CC(C)(C)c1ccc(C(=O)c2c[nH]c(C(=O)NCc3cccs3)c2)cc1,-0.8,/,/,/,1.5,/,3.7,2.7,0.803
CC(C)OC(=O)C(C)Nc1n[nH]c(=S)[nH]c1=O (stereo not drawn),/,4.5,-1.9,-1.1,2.1,i,4.0,0.1,0.656
O=C(Cn1ccc(=O)[nH]c1=O)c1ccc([N+](=O)[O-])o1,/,-49.5,-77.5,-17.4,/,i,/,8.5,/
Cc1ccc(CNC(=O)C2CCCN(S(=O)(=O)c3ccc(F)cc3)C2)cc1 (stereo not drawn),-6.6,5.7,12.4,3.3,-9.8,i,-0.1,0.9,0.708
COc1ccc(-n2c(=S)[nH]c3cc(C(=O)Nc4ccc(OC)c(OC)c4)ccc3c2=O)cc1,-1.9,/,/,/,38.2,/,2.5,-0.9,0.672
Cc1ccc(C(=O)COC(=O)c2cn3ccccc3n2)cc1,-7.3,8.0,13.8,2.4,-4.0,i,-0.3,-1.0,0.625
CCC(C)c1ccccc1N1CC(C(=O)NCCC2=CCCCC2)CC1=O (stereo not drawn),-3.4,-5.8,-24.1,-2.9,-6.2,i,2.0,1.5,0.687
Cc1cc(C)n(-c2ccc(Cl)c(C(=O)Nc3cc(C(F)(F)F)ccc3Cl)n2)n1,-4.1,/,/,/,-24.7,/,1.0,-4.0,0.704
CCc1ccc(/C=C2\SC(=S)N(CCC(=O)NCCCN3CCOCC3)C2=O)cc1,-9.7,-4.1,-3.1,0.9,2.2,i,9.1,2.7,0.605
CCOc1ccc(NC(=O)Nc2nnc(CC)s2)cc1,-17.6,/,/,/,-14.9,/,3.1,-1.6,0.749
CCCC(=O)Nc1c2c(nn1-c1ccccc1)CSC2,-1.9,7.1,1.8,0.1,-5.2,i,2.3,0.4,0.738
O=C(C1CCN(S(=O)(=O)c2cnc[nH]2)CC1)N1CCN(Cc2ccc3c(c2)OCO3)CC1,-2.8,/,/,/,-8.3,/,2.0,-0.4,0.726
Cc1ccc(CC(NC(=O)c2ccccc2)C(=O)N2CCCC2C(=O)O)cc1 (stereo not drawn),0.3,/,/,/,20.8,/,0.6,-0.5,0.763
N#Cc1cnn(Cc2ccc(Cl)cc2)c1N,-14.1,/,/,/,-0.1,/,2.5,-1.0,0.718
CCN(C[C@H]1N[C@@](C)(C(=O)OC)[C@H]2C(=O)N(C)C(=O)[C@@H]12)C(=O)c1ccc(C(C)(C)C)cc1,/,/,/,/,-7.8,i,0.5,4.4,0.689
Nc1ncnc2c1ncn2C1CCCC(CO)O1 (stereo not drawn),/,12.9,16.7,4.1,-7.6,i,-1.6,-10.4,0.693
CCCOc1ccc(C(CC(=O)O)NC(=O)CC(c2ccccc2)c2ccccc2)cc1 (stereo not drawn),-3.9,-2.1,-12.6,-0.8,1.6,i,6.1,3.2,0.647
C=CCNC(=S)Nc1cccc2ccccc12,-16.1,/,/,/,-1.4,/,4.2,-2.4,0.689
COc1ccc(NC(=O)C2CCCN(C(=O)NC3CCCCC3)C2)cc1OC (stereo not drawn),-10.9,/,/,/,4.0,/,2.9,9.0,0.703
CNC(=O)COC(=O)c1cc(NC(=O)c2ccco2)c(OC)c(OC)c1,-2.9,/,/,/,-0.5,/,2.4,1.3,0.739
CCCC(=O)Nc1ccc(-c2cn3cccnc3n2)cc1,-5.7,3.8,11.9,2.1,5.8,i,i,0.3,0.678
CCn1cc(C(=O)N2CCc3ccccc3C2)c(=O)c2cc(S(=O)(=O)N3CCCCC3)ccc21,-6.4,-19.3,-14.9,-1.8,/,i,5.2,/,0.654
CCCn1c(NC(=S)Nc2ccccc2)nc2ccccc21,-4.3,/,/,/,2.9,/,-1.3,-5.1,0.699
Cc1ncc(S(=O)(=O)C(C)(C)C)c(N)n1,-1.6,6.5,4.3,0.6,-6.1,i,1.1,-0.9,0.638
Clc1cccc(-c2nnc(-c3ccccc3)o2)c1,30.6,/,/,/,5.8,/,-1.9,1.7,0.691
Cc1ccc(NC(=O)COc2cccc(-n3cnnn3)c2)cc1[N+](=O)[O-],/,3.5,10.7,-0.8,-10.9,i,2.6,0.9,0.677
Cn1nccc1C(=O)NC(=S)Nc1sc2c(c1C#N)CCCCC2,-20.7,/,/,/,-0.7,/,5.3,-0.9,0.755
Cc1cc(C)c(S(=O)(=O)Nc2ccc(O)c(Sc3ncn[nH]3)c2)c(C)c1,99.0*,-1.8,-1.3,6.3,-0.8,i,-0.9,-0.6,0.693

# Compounds above that contain a nitro group on carbon (two):
SMILES,ALR H2O2 inh,rRNA inh HTS,rRNA inh HTS OD600,rRNA inh HTS RFP,Beta2AR agonist,FGF22 binding,UCH37 DUB inh,HNF4A DNA FP,E coli growth
O=C(Cn1ccc(=O)[nH]c1=O)c1ccc([N+](=O)[O-])o1,/,-49.5,-77.5,-17.4,/,i,/,8.5,/
Cc1ccc(NC(=O)COc2cccc(-n3cnnn3)c2)cc1[N+](=O)[O-],/,3.5,10.7,-0.8,-10.9,i,2.6,0.9,0.677

# Of the compounds above, these contain an aryl methoxy group:
SMILES,ALR H2O2 inh,rRNA inh HTS,rRNA inh HTS OD600,rRNA inh HTS RFP,Beta2AR agonist,FGF22 binding,UCH37 DUB inh,HNF4A DNA FP,E coli growth
COc1ccc(-n2c(=S)[nH]c3cc(C(=O)Nc4ccc(OC)c(OC)c4)ccc3c2=O)cc1,-1.9,/,/,/,38.2,/,2.5,-0.9,0.672
COc1ccc(NC(=O)C2CCCN(C(=O)NC3CCCCC3)C2)cc1OC (stereo not drawn),-10.9,/,/,/,4.0,/,2.9,9.0,0.703
CNC(=O)COC(=O)c1cc(NC(=O)c2ccco2)c(OC)c(OC)c1,-2.9,/,/,/,-0.5,/,2.4,1.3,0.739

# A different layout for part of the listing above.
CCCn1c(NC(=S)Nc2ccccc2)nc2ccccc21
  ALR H2O2 inh = -4.3; rRNA inh HTS = /; rRNA inh HTS OD600 = /; rRNA inh HTS RFP = /; Beta2AR agonist = 2.9; FGF22 binding = /; UCH37 DUB inh = -1.3; HNF4A DNA FP = -5.1; E coli growth = 0.699

Cc1ncc(S(=O)(=O)C(C)(C)C)c(N)n1
  ALR H2O2 inh = -1.6; rRNA inh HTS = 6.5; rRNA inh HTS OD600 = 4.3; rRNA inh HTS RFP = 0.6; Beta2AR agonist = -6.1; FGF22 binding = i; UCH37 DUB inh = 1.1; HNF4A DNA FP = -0.9; E coli growth = 0.638

# (listing goes on)
SMILES,ALR H2O2 inh,rRNA inh HTS,rRNA inh HTS OD600,rRNA inh HTS RFP,Beta2AR agonist,FGF22 binding,UCH37 DUB inh,HNF4A DNA FP,E coli growth
NC(=O)CSc1n[nH]c(-c2ccco2)n1,5.9,6.4,9.7,6.0,-1.2,i,2.3,-2.6,0.684
COc1ccccc1/C=C/C(=O)OCC(=O)NCCC1=CCCCC1,-2.5,-8.6,-6.2,3.9,0.4,i,2.5,0.4,0.71
Cc1ccccc1N1CCN(C2CCCN(C(=O)c3ccnn3C)C2)CC1 (stereo not drawn),18.4,3.6,7.0,0.3,-4.8,i,1.7,0.7,0.738
COc1ccc(C)cc1N(C(=O)CNC(=O)c1ccco1)C(C(=O)NC1CCCC1)c1cccnc1 (stereo not drawn),-7.9,/,/,/,-27.3,/,-0.4,-0.2,0.694
CN(C)S(=O)(=O)c1ccc(C(=O)OCCn2cnc3c2c(=O)n(C)c(=O)n3C)cc1,/,4.1,5.0,-7.0,1.8,/,3.2,2.5,0.684
CC(=O)NCCC(=O)Nc1cc(S(=O)(=O)N2CCCCC2)ccc1Oc1cccc(C)c1,-10.8,-1.7,-2.1,-1.0,-9.8,i,1.5,3.5,0.729
COc1ccc(C(C)NC(=O)c2ccncc2)cc1 (stereo not drawn),-8.1,5.9,4.2,-1.3,3.6,i,1.6,0.7,0.666
CCOc1cccc(N2C(=O)CC(N3CCN(c4nc5ccccc5s4)CC3)C2=O)c1 (stereo not drawn),/,/,/,/,-1.6,/,1.9,-2.9,0.68
O=C(C(=O)N1CCC(Cc2ccccc2)CC1)c1cccc(Br)c1,/,-14.5,-17.6,-8.8,/,i,/,-4.5,/
COc1ccc(CC(=O)O/N=C(\N)c2ccccn2)cc1OC,-7.7,/,/,/,-12.1,i,-1.0,-5.3,0.673
Cc1cc(C)cc(C(=O)N(Cc2ccco2)c2c(N)n(Cc3ccccc3)c(=O)[nH]c2=O)c1,2.5,6.7,-0.3,-3.9,-0.9,i,0.2,5.4,0.65
C[N+](C)(C)C/C=C1/COCO1,-3.9,/,/,/,-15.0,/,-0.5,0.7,0.759
O=C(NNC(=O)c1ccc(O)cc1O)c1ccc(-c2ccccc2)cc1,1.0,-36.2,-39.3,0.1,8.2,i,3.5,2.1,0.673
CC1CCN(C(=O)Cn2c(=O)n(Cc3ccco3)c(=O)c3sccc32)CC1,1.9,4.1,10.4,1.1,-20.8,i,3.8,-3.2,0.651
COC(=O)c1c(S(=O)(=O)N2CCOCC2)c(C)n(C)c1C,-2.2,3.7,15.2,1.7,-2.5,i,2.1,0.6,0.654
CCOc1cc(N(CC)CC)ccc1/C=C(/C#N)c1nc2ccccc2[nH]1,0.1,/,/,/,-214.3,/,10.1,70.2,0.769
COc1ccc(Cl)cc1N1C(=N)SCC1=O,-5.7,9.6,14.2,-2.7,-0.8,i,1.8,-1.1,0.692
CN1CCN(c2ccc(S(=O)(=O)N3CCCCC3)cc2[N+](=O)[O-])CC1,-2.5,5.2,-2.1,-0.8,-1.8,i,0.0,-0.3,0.698
Cc1ccc(C2=NCCn3c2c2ccc([N+](=O)[O-])cc2[n+]3[O-])cc1,-91.9,-3.7,4.4,-2.4,-2.8,i,1.9,13.1,0.656
Cc1cccc(CCNC(=O)CN(C)S(=O)(=O)c2cnc[nH]2)c1,-5.6,/,/,/,3.5,/,-0.8,2.8,0.679
O=C(CCc1nnc(Cc2c[nH]c3ccccc23)o1)NC1CCCC1,-20.8,1.9,4.1,0.3,2.9,i,7.1,3.9,0.666
COC(=O)c1ccc(C2Nc3ccc(/C(C)=N/NC(=O)C(OC)c4ccccc4)cc3C3C=CCC32)cc1 (stereo not drawn),-4.8,/,/,/,14.8,/,/,4.8,/
N#C/C(C(N)=O)=C1/CCCN1Cc1ccccc1,-1.8,6.5,3.9,0.1,3.3,i,5.8,3.0,0.645
COc1cccc(CNCCc2c[nH]c3ccccc23)c1OCc1ccc(F)cc1,1.3,/,/,/,33.7,/,0.2,1.3,0.642
CCN(CC)CCN(Cc1cc2cc3c(cc2[nH]c1=O)OCCO3)C(=S)NCCCN(C)C,-4.3,12.3,16.1,7.7,-2.9,i,-56.5,2.2,0.663
O=C(NNC(=O)c1ccccc1O)c1ccco1,4.5,21.6,13.5,0.0,2.8,i,7.1,3.0,0.671
O=C(O)C1CCC(=O)N1C(=O)OCc1ccccc1 (stereo not drawn),-23.3,10.0,7.9,-1.0,-8.0,i,1.0,0.1,0.664
Cc1nn(CC(=O)Nc2ccc3c(c2)nc(CN2CCCCC2)n3C)c(=O)c2ccccc12,-31.7,/,/,/,-6.0,/,-2.8,0.1,0.763
